PABP FP inh = PABP-poly(A) binding inhibition | P11940 | PABP-poly(A) RNA binding, fluorescence polarization | inhibition, % at 35 µM | 1% of 290,000 active;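 active means 50% or more with normal probe brightness, or confirmed in later tests; inconclusive means above 50% with abnormal brightness, or retests that disagree; inactive means below 50% or failed in later tests; about a fifth of its hits are not listed in these tables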;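 further: calls also rest on retests at 20 µM and on dose response follow-up; controls were probe without protein and protein plus probe with vehicle; some compounds called inactive have numbers as strong as hits; many hits fall short of the cut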
Rce1 inh = blocks yeast Ras-converting enzyme; Q03530; yeast membranes, quenched prenylated peptide cleavage fluorescence; calls only; 0.27% of 290,000 active;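 active means fall in fluorescence gain of 50% or more versus controls, with final raw signal at or below 3038400; inconclusive means same 50% fall but final raw signal above 3038400; inactive means fall in fluorescence gain under 50%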;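 further: plate controls were neutral control wells for no effect and wells lacking membranes for full effect; tested at 10 µM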
Target sequence (Q03530 whole entry, looked up): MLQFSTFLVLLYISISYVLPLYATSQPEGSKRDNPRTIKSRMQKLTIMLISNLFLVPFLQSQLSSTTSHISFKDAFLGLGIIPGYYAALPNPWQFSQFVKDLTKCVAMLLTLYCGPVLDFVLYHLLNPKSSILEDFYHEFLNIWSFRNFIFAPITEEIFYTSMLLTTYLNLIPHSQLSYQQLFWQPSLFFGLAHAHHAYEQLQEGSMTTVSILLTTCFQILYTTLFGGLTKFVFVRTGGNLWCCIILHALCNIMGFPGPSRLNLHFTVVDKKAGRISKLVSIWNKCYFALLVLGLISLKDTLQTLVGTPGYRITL
HIV Env fusion = inhibitors of HIV Env-mediated cell fusion; HeLa-JRFL Env/CEM21 cell fusion, luciferase; inhibition, % at 12.3 µM; 1.1% of 360,000 active; AID 651610;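 active means mean replicate inhibition score of at least 50 and every replicate individually at or above 50; inconclusive means only one of the two criteria met; inactive means mean below 50 and not all replicates reaching 50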;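 further: 0% = plate neutral controls and 100% = maraviroc near 300 nM; one replicate is shown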
CSC inhib = cancer stem cell inhibition; cancer stem cell-like cells viability, luminescence; inhibition, % at 7.5 µM; 1.1% of 300,000 active; AID 2717;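 active means mean at 75% or more and at least half the replicates too; inconclusive means mean and replicates disagree; tested in HMLE shEcad cells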;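 further: 0% = median of negative and 100% = median of positive control wells; the first replicate is given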
eIF4H FP inh = inhibitors of RNA binding by human eIF4H; Q15056; eIF4H fluorescence polarization binding assay; inhibition, % at 35 µM; 0.94% of 290,000 active; AID 2012;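 active means 50% or more with normal probe brightness, or confirmed in later tests; inconclusive means above 50% with abnormal brightness, or retests that disagree; inactive means below 50% or failed in later tests; about a fifth of its hits are not listed in these tables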;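 further: calls also rest on retests at 20 µM and on dose response follow-up; 0% = protein and probe with vehicle and 100% = probe without protein; strong numbers were not always called active; many hits fall short of the cut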
MT1-MMP act inh = MT1-MMP (human) activation inhibition. 0.061% of 360,000 active. HT1080 RFP-PRO-GFP cells, GFP/RFP ratio fluorescence, overnight; percent of plate control window, DMSO zero. AID 651647. GFP/RFP ratio change, % at 20 µM. P50281;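 active means GFP/RFP ratio change of at least 30% with cell ATP level not reduced by more than half and red fluorescence within 50% of control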; further: strong numbers were not always called active
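Assay system: HT1080 RFP-PRO-GFP cells. Benchmarks: DMSO vehicle wells and RFP-L50D-GFP reporter cell wells. Times: overnight cell settling, then overnight compound exposure, 37 °C, 5% CO2. Compound: 20 µM single dose, 1% DMSO. Read-out basis: GFP/RFP fluorescence ratio.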
Yeast UUG start = yeast start codon fidelity modulation; 0.13% of 350,000 active; S. cerevisiae UUG-firefly luciferase reporter, luminescence/redox ratio; activity score, % at 18.7 µM;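 active means replicate mean at a twofold rise or more, about +100% in these data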;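 further: firefly luciferase made from a UUG start codon reports start codon fidelity; reporter light over untreated wells divided by growth signal over untreated wells; some hits fall short of that in this replicate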
MT1-MMP act inh RFP = also measured in MT1-MMP act inh; calls as there; RFP signal change, %; measured here: RFP expression control read;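 0 = vehicle wells; hits needed this value within 50% of zero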
* = called active by the depositor; i = inactive; ? = inconclusive; nt = not tested or not shown. Hits appear at their usual frequency; about 2.9% have a hit in one of these screens.

Each structure is followed by: PABP FP inh, Rce1 inh, HIV Env fusion, CSC inhib, eIF4H FP inh, MT1-MMP act inh, MT1-MMP act inh RFP, Yeast UUG start
1. C=CCc1cccc(/C=N/NC(=O)C[n+]2ccccc2)c1O
 : 7, i, 10, 73, 7, -3, -4, -12
2. N#Cc1c(C(F)(F)F)cc(-c2ccc(Cl)c(Cl)c2)nc1SCCN1CCOCC1
 : ?, i, nt, 55, ?, -49, -12, -10
3. O=C(CC1C(=O)NCCN1CC1CCCCC1)NCc1cc(F)ccc1F (stereo not given)
 : 0, i, 0, 2, 8, -3, 2, nt
4. COc1cccc(/C=C2\Oc3cc(OCC(=O)N4CCCC4)ccc3C2=O)c1OC
 : nt, i, -9, -2, nt, 2, -2, -7
5. COC(=O)c1ccccc1Sc1snnc1C
 : -3, i, 9, -2, 0, 1, 0, nt
6. O=C1CCC(C(=O)OCC(=O)Nc2ccc(Cl)cc2C(F)(F)F)=NN1
 : nt, nt, nt, 11, nt, -1, 4, -13
7. CNc1cncc(-c2cccc(C(=O)N(C)C)c2)n1
 : nt, nt, 22, nt, nt, -7, -4, -22
8. CCc1ccc(S(=O)(=O)Nc2ccc(-c3ccc4nncn4n3)cc2)s1
 : nt, i, -9, -3, nt, -5, 1, -4
9. CCOc1cc(/C=N/NC(=O)OC)ccc1OCCSc1ccc(Cl)cc1
 : 0, i, 4, -9, 0, 0, -1, nt
10. COC(=O)c1sc2cc(C(F)(F)F)cnc2c1-c1ccccn1
 : 7, nt, 4, -7, -2, 2, 4, nt
11. CCC(=O)N1CCC(NC(=O)Nc2ccc(OC(F)(F)F)cc2)CC1
 : nt, nt, 9, -6, nt, -2, 3, 4
12. Cn1nc(C2CC2)cc1NC(=O)C1(C)CCN1C(=O)CCc1ccccc1 (stereo not given)
 : nt, nt, -7, nt, nt, 3, 1, -8
13. COC(=O)CCC(=O)NC(=S)Nc1ccc(S(=O)(=O)Nc2cc(OC)nc(OC)n2)cc1
 : 3, i, -9, 0, -1, 7, 5, -15
14. O=C1C=C(c2cc3ccccc3s2)CCC1
 : nt, i, -85, 0, nt, 0, 0, -15
15. CC(=O)NC(C)c1ccc(Cl)c(Cl)c1 (stereo not given)
 : -4, i, nt, nt, -9, -4, -7, -10
16. COc1ccccc1N(CC(=O)N1CCc2ccccc2C1)S(C)(=O)=O
 : 9, i, 16, nt, -5, 0, 2, -5
17. COc1ccc(N(C(=O)COc2ccccc2)C2C=CS(=O)(=O)C2)cc1 (stereo not given)
 : 34, i, nt, -8, 0, 6, 5, -12
18. O=C(Nc1ccc(F)cc1)OCCOc1ccc(Br)cc1
 : -2, i, 5, 3, 8, 4, 1, -7
19. Cc1ccc(C2=N/C(=C\N3CCCCC3)C(=O)O2)cc1
 : -10, i, -113, -7, -5, -2, -2, -2
20. COc1ccc(N=c2oc3cc(O)ccc3cc2C(=O)Nc2ccccn2)cc1OC
 : 0, i, 27, 21, 3, -22, -18, nt

The results go on.
Each structure is followed by: PABP FP inh, Rce1 inh, HIV Env fusion, CSC inhib, eIF4H FP inh, MT1-MMP act inh, MT1-MMP act inh RFP, Yeast UUG start
21. Cc1ccc(NC(=O)CSc2ccc(-c3ccc(-n4cccn4)cc3)nn2)c(C)c1
 : nt, i, -12, -5, nt, 2, -1, -9
22. COc1ccccc1Nc1nc(NCCCCO)nc(N2CCCC2)n1
 : nt, i, 26, -12, nt, 7, -5, 1
23. COc1cc(C(c2c(C)[nH][nH]c2=O)c2c(C)[nH][nH]c2=O)cc([N+](=O)[O-])c1O
 : -4, i, 16, -7, 2, 5, 0, nt
24. O=S(=O)(Nc1nccs1)c1ccc(NS(=O)(=O)c2c(F)cc(F)c(Cl)c2F)cc1
 : nt, nt, ?, -5, nt, 1, 2, -18
25. C=CCNCC(=O)Nc1ccccc1SCC(=O)Nc1ccsc1C(=O)OC
 : -5, i, -10, -3, -9, 0, -3, nt
26. CCCCn1nnnc1NCc1ccc(C)cc1
 : 3, i, -6, nt, 11, 2, 8, -3
27. CCOC(=O)C1Cn2c(nc3c(c2=O)C2(CCCC2)Cc2ccccc2-3)S1 (stereo not given)
 : -9, nt, nt, 41, -8, -6, -9, -2
28. CCCC(=O)Nc1ccc(NCc2ccc(C)s2)cc1
 : -1, i, -8, -20, 1, -4, -3, 4
29. COC(=O)C1=C(N)Oc2cc(C)n(Cc3cccnc3)c(=O)c2C1c1cccc(OC)c1OC (stereo not given)
 : -4, nt, nt, -6, -6, 1, 1, -26
30. Cc1nnc(SCc2ccccc2)[nH]c1=O
 : -2, i, 10, 14, 2, -1, -1, nt
31. CC(C)c1ccc(N(C(=O)CNC(=O)c2ccco2)C(C(=O)NC2CCCC2)c2cccnc2)cc1 (stereo not given)
 : 6, i, -9, -16, -10, -2, 1, nt
32. O=C(O)C1=C[C@@H](c2ccc(F)cc2)C[C@@H](OCCCCO)O1
 : 2, i, 6, 2, -2, 1, 4, -26
33. COc1ccc(N2C3=[N+](CCCC3)CC2(C)O)cc1 (stereo not given)
 : -13, i, nt, -8, 9, 1, 4, -23
34. CCn1c(SCC(=O)N2CCCCC2)nnc1-c1ccc(S(=O)(=O)N2CCN(C)CC2)cc1
 : 0, i, -26, -7, 2, 12, 3, -17
35. CC1=C(C(=O)N2CCOCC2)CC(CC(=O)NCCN2CCOCC2)C(=O)N1Cc1ccc(C(C)(C)C)cc1 (stereo not given)
 : nt, nt, 10, nt, nt, 2, -4, 17
36. CCOc1ccc(OCc2ccc(C(=O)NN)o2)cc1
 : 3, i, -27, 2, 2, -1, 4, nt
37. CC1=NN(c2ccccc2)C(=O)/C1=C\C=C\c1ccccc1
 : 11, i, -107, 102*, 2, 4, -10, -13
38. Cc1ccc(-c2c(C#N)c(N)n(-c3ccccc3)c(=O)c2C#N)cc1
 : -5, i, nt, -4, -15, 0, -2, nt
39. O=C(c1cccc(S(=O)(=O)N2CCCCC2)c1)N1CCOCC1
 : -2, i, nt, 9, -2, 1, 2, -16
40. COc1ccccc1CNS(=O)(=O)c1ccc(N2CCCC2)cc1Br
 : nt, nt, 16, nt, nt, 0, -14, -7

Following part
Each structure is followed by: PABP FP inh, Rce1 inh, HIV Env fusion, CSC inhib, eIF4H FP inh, MT1-MMP act inh, MT1-MMP act inh RFP, Yeast UUG start
41. COc1ccccc1/C=C/C=N/n1c(-c2ccccc2)n[nH]c1=S
 : 11, i, -17, 7, 12, 3, -2, nt
42. COC1CCN(C(=O)C2CCC(=O)N(C3CCCCCC3)C2)CC1 (stereo not given)
 : 8, i, -27, -3, -3, 0, 5, -5
43. CCC1C(C#N)=C(SC)NC2=C1C(=O)CC(C)(C)C2 (stereo not given)
 : 1, i, 36, 17, 0, 4, 2, -1
44. O=C(CN1C(=O)C2C3CC(C(Br)C3Br)C2C1=O)N1CCOCC1 (stereo not given)
 : -2, i, -62, -9, 5, -3, 3, nt
45. CC1CCCCN1CCn1c(=S)[nH]c2ncccc2c1=O (stereo not given)
 : 0, i, -57, -5, 3, -1, 4, -6
46. Cc1ccc(C(=O)Nc2cccc(NC(=O)c3ccc(C)c([N+](=O)[O-])c3)n2)cc1[N+](=O)[O-]
 : -3, i, 5, 1, -4, 5, -5, -4
47. NC(=O)c1ccc(NC(=O)COC(=O)c2c[nH]c3ccccc23)cc1
 : nt, nt, -10, nt, nt, -3, 2, -5
48. N#CCN1C(=S)N=C(Nc2cccc(Cl)c2)C12CCCCC2
 : -12, i, nt, 25, -10, -16, -5, nt
49. Cn1ccnc1SCC(=O)Nc1ccc2c(c1)OC(F)(F)O2
 : 11, i, nt, -1, 3, nt, nt, nt
50. COc1cc(NC(=O)COC(=O)Cc2ccsc2)cc(OC)c1
 : nt, nt, nt, 3, nt, 6, 3, 3
51. O=C(c1ccc(F)cc1)C1CCN(Cc2ccccc2)CC1
 : nt, nt, 8, nt, nt, -5, 2, 3
52. CCC1C(=O)NCCN1C(=O)c1ccc(OC)c(OC2CCN(C(C)=O)CC2)c1 (stereo not given)
 : 8, i, nt, -6, -6, 0, 1, -10
53. COC(=O)c1cccc2c1-c1ccccc1/C2=N/O
 : -10, i, nt, -10, -2, -15, -14, -29
54. CCN(CCNC(=O)C1CCN(S(=O)(=O)c2cccc3cccnc23)CC1)c1ccccc1
 : 1, i, -14, -11, -2, 0, 3, 1
55. COC(=O)c1ccc(NC(=O)CN2C(=O)NC3(CCC(C)CC3)C2=O)cc1 (stereo not given)
 : nt, nt, nt, 8, nt, -2, 2, -16
56. O=C(Cn1nc(CNc2ccc(Cl)cc2)[n+]2c1CCCCC2)c1ccccc1
 : -13, i, 22, 4, 6, 0, 2, -4
57. O=C(NCc1ccccc1)N1CCN(c2ccccc2F)CC1
 : -5, i, nt, 17, -16, 3, 1, -4
58. O=C(NCc1cccs1)C1CCC(CNS(=O)(=O)c2ccc(Br)s2)CC1 (stereo not given)
 : 0, i, nt, 0, -12, 1, -7, -12
59. Cc1ccc(S(=O)(=O)N/N=C\c2cc([N+](=O)[O-])ccc2Cl)cc1
 : -1, i, nt, -5, -5, 1, 5, -9
60. O=[N+]([O-])c1ccc(C2Oc3ccccc3C3CC(c4ccccc4)=NN32)s1 (stereo not given)
 : -8, nt, nt, 41, -2, nt, nt, nt
61. Cn1c(-c2ccccc2Br)n[nH]c1=S
 : nt, i, nt, -9, nt, 2, 4, nt
62. CC(C)CNc1nc(N)c([N+](=O)[O-])c(N2CCCCCC2)n1
 : -8, i, 24, -16, 8, 4, -25, -11
63. Cc1nc(NC(=S)NC(=O)c2cncc(Br)c2)ccc1Br
 : 11, i, -36, -8, 9, 4, -1, -24

Screens: PubChem, several laboratories
